2A firefly: lowers the firefly signal of an FMDV 2A StopGo reporter. HEK cells with a luciferase reporter of 2A StopGo recoding. Potency, µM (titrated, usually from 57.5 µM), for inactives: at the top dose signal change, negative = less light. 120,000 compounds, 0.23% hits. AID 1745856; active = well fitted falling curve with a large enough effect; inconclusive = small, poorly fitted or top-dose-only effect; inactive = no such curve, though single readings can be large or run the other way; further: nearly all actives have a fitted effect of over 60% in size; overnight with compound
StopGo RLuc: FMDV 2A StopGo reporter, Renilla signal; HEK cells with a luciferase reporter of 2A StopGo recoding; Potency, µM (top dose mostly 57.5 µM), without a hit: top-dose signal change, negative = less light; 120,000 compounds, 0.32% hits; active means well fitted falling curve with a large enough effect; inconclusive means small, poorly fitted or top-dose-only effect; inactive means no such curve, though single readings can be large or run the other way; further: nearly all actives have a fitted effect of over 55% in size; overnight with compound
Numbers without * were called inactive; ? = inconclusive; & = joins results of further samples; [ ] = dose if it differs, or a comment. On the % scale 0 is the no-effect control and ±100 the full control effect; potency means the concentration at half of the fitted maximal effect.

Fields: 2A firefly, StopGo RLuc
O=C(CC1N=C2c3ccccc3N=C(SCc3cccc(F)c3)N2C1=O)NCc1cccs1 (stereo not given)
    -26%, -13%
COCCn1c(=O)[nH]c(=O)c2c3c(cnc21)C(=O)CC(c1cccs1)C3 (stereo not given)
    -12%, -13%
CCCn1c(=N)c(C(=O)NCc2ccco2)cc2c(=O)n3cc(C)ccc3nc21
    -13%, -4%
CC1=C(C#N)C(c2cc(Br)ccc2OC(F)F)C(C#N)=C(C)N1
    ?, 28µM*
Cc1ccc(S(=O)(=O)C(C#N)c2nc3ccccc3nc2N(C)C)cc1 (stereo not given)
    0%, 111%[activator]
CC(Cc1ccc(Br)cc1)NC(=O)C1CCCC1 (stereo not given)
    15%, 11%
CCc1ccc(NC(=O)CSc2nnc(C(C)N3C(=O)COc4ccccc43)n2C)cc1 (stereo not given)
    -4%, 9%
O=c1c2ccccc2n2c(-c3ccc(F)c(F)c3)nnc2n1CCc1ccccc1
    13%&0%, -7%&-4%
CC1(C)CC(=O)C2=C(C1)OC(N)=C(C#N)C2c1ccc(F)cc1 (stereo not given)
    -4%, -1%
O=C(Cn1c(=O)oc2ccccc21)NCc1ccccc1Cl
    79%[activator], 12%

Copied from the list:
`O=C(CC1N=C2c3ccccc3N=C(SCc3cccc(F)c3)N2C1=O)NCc1cccs1` (stereo not given) in StopGo RLuc reads -13%
`COCCn1c(=O)[nH]c(=O)c2c3c(cnc21)C(=O)CC(c1cccs1)C3` (stereo not given) in 2A firefly reads -12%

New compounds follow
Fields: 2A firefly, StopGo RLuc
CC(Sc1ccc(Br)cc1)C(=O)O (stereo not given)
    14%, 3%
COc1ccc2c(CN3CCN(c4ccccc4OC)CC3)cc(=O)oc2c1
    -11%, -21%
COc1cccc(NC(=O)c2ccc3c(=O)n4nc(Nc5ccccc5OC)sc4nc3c2)c1
    -5%, -5%
Cc1ccc(-c2noc(-c3nnn(CC(=O)Nc4ccc(C)cc4Cl)c3N)n2)cc1
    13%&20%, 0%&-6%
C/C=C/CSc1nc2c(c(=O)[nH]c(=O)n2C)n1CCOC
    2%, 28%
COc1cc(Nc2nc(N3CCN(c4ccccc4)CC3)c3nccnc3n2)cc(OC)c1OC
    113%[activator], 98%[activator]
CCn1c(=O)cc(OCC(=O)N2CCN(c3ccc(OC)cc3)CC2)c2ccccc21
    83%[activator], 129%[activator]
Cc1cc2nc(/N=C(\N)NC(=O)Cc3ccccc3)nc(C)c2cc1C
    24%, -2%
CC(C)(C)c1ccc(OCC(=O)Nc2c(C(=O)c3ccc(F)cc3)oc3ccccc23)cc1
    33%[activator], 19%
CN(C)CCC(c1ccccc1)c1ccccn1 (stereo not given)
    -7%[11.5 µM], -11%
Cc1cccc(NC(=O)CSc2nc(=O)n(Cc3ccncc3)c3c2CCC3)c1C
    -14%, 3%
Cc1ccc(NC(=O)CNc2nc(Nc3ccc(C)cc3)nc(Nc3ccc(C)cc3)n2)cc1
    -3%, 3%
CCC(C)n1c(=O)c2sccc2n2c(CCCC(=O)NCc3ccccc3Cl)nnc12 (stereo not given)
    -14%, -6%
Cc1ccc(S(=O)(=O)c2nc(-c3ccccc3)oc2N2CCCCCC2)cc1
    6%, 335%[activator]
CCCCN(C(=O)C1Cc2ccccc2C(=O)O1)c1c(N)n(CCC)c(=O)[nH]c1=O (stereo not given)
    1%, -5%
Cc1noc(-c2ccc(OCc3ccc(F)cc3)cc2O)c1-c1ccc(Br)cc1
    14%, 1%
C=CCNc1nc(C(=O)OCC(=O)NCC(=O)Nc2ccccc2Br)cs1
    -3%, -13%
O/N=C/c1c(F)cccc1F
    19%, -3%
COc1ccc(-c2cc(=O)n3[nH]c(C)c(-c4ccccc4)c3n2)cc1OC
    -1%, 2%
COc1cccc(Oc2coc3cc(OC(=O)c4ccc([N+](=O)[O-])cc4)ccc3c2=O)c1
    0%, -7%
Cc1nn(CC(=O)Nc2ccccc2C(F)(F)F)c(=O)c2cccn12
    -1%, -5%
CCOC(=O)c1scc(-c2ccccc2)c1S(=O)(=O)N1CCN(c2ccccc2OC)CC1
    -2%, 49%[activator]
CCc1ccc(C(=O)COC(=O)c2ccc3cc(OC)ccc3c2)s1
    10%, 12%
CC(C)Cc1ccc(C(C)NC(=O)c2ccc(CS(C)(=O)=O)cc2)cc1 (stereo not given)
    42%[activator], 21%
Cc1ccc(C(=O)O)cc1-n1c(C)ccc1-c1ccccc1
    0%, -4%
COc1ccc(C(=O)C(C)Oc2ccccc2Cl)cc1 (stereo not given)
    129%[activator], 24%
O=C(Nc1cc(Cl)cc(Cl)c1)c1cnn2c(C(F)F)cc(C3CC3)nc12
    -8%, -14%
NC(=O)c1ccc(COC(=O)c2cc3ccccc3[nH]2)cc1
    0%, 21%
COc1cc(-c2nnc(SCCOc3ccc(Cl)cc3)o2)cc(OC)c1OC
    11%, 1%
CCc1ccccc1NS(=O)(=O)c1ccc2oc(=O)c3ncn(C)c3c2c1
    -17%, -16%
COC(=O)c1ccccc1OS(=O)(=O)c1ccc2oc(=O)ccc2c1
    -8%, -6%[1.06 µM]
Cc1ccc(C)c(NC(=O)Cn2c(=O)nc(-c3ccccc3)c3ccccc32)c1
    18%, -3%
S=C(NCc1ccccc1)N/N=C/c1cccc(OCCOc2ccc(Br)cc2)c1
    0%, -10%
O=C(CCc1nc(CSc2nc3ccccc3o2)no1)Nc1ccc(C(F)(F)F)cc1
    18%, 1%
CC(C)c1ccccc1NC(=O)c1ccc2c(c1)CCC2
    8%, -9%
CCOc1ccc(OCC)c(NC(=O)Nc2ccc(F)cc2F)c1
    22%, 4%
Cc1cc(C(=O)NC2CCCCC2)c2cccc(C)c2n1
    11%, 61%[activator]
CCc1nc2n(n1)C1(CCCCC1)[C@@H]1CCCC[C@@H]1N2C(=O)COC
    22%, 8%
CCOc1ccccc1NC(=O)N1CCN(Cc2nc(-c3ccc(C(=O)NC)cc3)oc2C)CC1
    16%, 10%
Cc1ccc(-n2ncc(C(=O)NCc3ccco3)c2C2CCN(C(=O)OC(C)(C)C)CC2)cc1C
    -16%, 1%

In a second layout: entries from further up
> CC1=C(C#N)C(c2cc(Br)ccc2OC(F)F)C(C#N)=C(C)N1
  2A firefly: ?	StopGo RLuc: 28µM*
> Cc1ccc(S(=O)(=O)C(C#N)c2nc3ccccc3nc2N(C)C)cc1 (stereo not given)
  2A firefly: 0%	StopGo RLuc: 111%[activator]

Additional compounds follow.
Fields: 2A firefly, StopGo RLuc
COc1ccc2c(C)c(CC(=O)Nc3cccc(Br)c3)c(=O)oc2c1OC
    2%, 14%
O=C(Cn1ccc2ccc(F)cc21)Nc1nnc(C2CCCCC2)s1
    26%, -6%
Cc1ccccc1NC(=O)Cn1c(=O)n(Cc2ccccc2)c(=O)c2sc3ccccc3c21
    -11%, -3%
CCOC(=O)c1cc(NC(=O)c2ccc(Cl)cc2)c(=O)n2c1oc1ccccc12
    -1%, -1%
Cc1cc(C(=O)NC(C2CC2)C2CC2)c2c(Br)cccc2n1
    -5%, 39%[activator]
CCOC(=O)c1cc(S(=O)(=O)NCc2cccc(Cl)c2)[nH]n1
    -11%, 74%[activator]
COc1cccc(-c2nc(CS(=O)CC(=O)NCCc3ccc(C)cc3)c(C)o2)c1 (stereo not given)
    -2%, 5%
O=Cc1ccc(-c2ccccc2Br)o1
    14%, -24%
O=C(c1ccccc1Cl)N1CCCCC1CCN1CCCCC1 (stereo not given)
    -9%, -20%
Cc1cccc(C(=O)c2ccc(C(C)(C)C)cc2)c1
    218%[activator], 22%

(next part)
| SMILES | 2A firefly | StopGo RLuc |
| --- | --- | --- |
| CC(=O)N1CCN(c2nc(CC(C)C)c3c(c2C#N)CCCC3)CC1 | -30% | -25% |
| CCN(CC)S(=O)(=O)c1ccc(NC(=O)c2nn(C(C)C)c(=O)c3ccccc23)cc1 | 8% | 25% |
| O=C(NN1CCOCC1)c1ccn(COc2c(Cl)cccc2Cl)n1 | 15% | 9% |
| COC(=O)c1sc(=S)n(-c2ccccc2C)c1N | 9% | 17% |
| COc1cc(C(=O)O)cc2c1OCO2 | 0% | 5% |
| O=S1(=O)N=C(Nc2ccccc2)c2ccccc21 | 21% | 140%[activator] |
| Cc1cccc(NC(c2ccccc2C)c2ccc3ccc(C)nc3c2O)n1 (stereo not given) | -10% | 8% |
| Clc1cccc(CSc2nncn3c2cc2sccc23)c1 | 22% | 11% |
| Cc1cccc(C(C)C)c1NC(=O)C(Sc1ccccc1)c1ccccc1 (stereo not given) | 2% | 15% |
| COc1ccc(C(=O)Nc2ccc3oc(-c4cccc(Cl)c4)nc3c2)cc1 | 60%[activator] | 11% |
| CCc1ccc(NC(=O)Cn2ncc3c4ccccc4n(C)c3c2=O)cc1 | -9% | -12% |
| CN(CCOc1ccc(F)cc1)C(=O)c1cc2ccccc2oc1=O | 17% | 5% |
| CCc1ccc(C(N)CC(=O)OC)cc1 (stereo not given) | 2% | 4% |
| CC(C)Cn1cnc2c1c(=O)n(Cc1ccccc1C#N)c(=O)n2Cc1ccccc1 | -16% | -5% |
| CCOc1ccc(-c2n[nH]c3c2C(c2cccs2)N(c2ccc(Br)cc2)C3=O)cc1 (stereo not given) | ? | ? |
| COc1ccc(CCNC(=O)c2cc(-c3ccc(C)c(C)c3)nc3ccccc23)cc1OC | 53%[activator] | 27% |

Compound profiles (already shown). Order of values: 2A firefly | StopGo RLuc
COc1ccc(C(=O)Nc2ccc3oc(-c4cccc(Cl)c4)nc3c2)cc1 as listed: 60%[activator] | 11%
CC(C)Cn1cnc2c1c(=O)n(Cc1ccccc1C#N)c(=O)n2Cc1ccccc1 as listed: -16% | -5%
COc1ccc(CCNC(=O)c2cc(-c3ccc(C)c(C)c3)nc3ccccc23)cc1OC as listed: 53%[activator] | 27%
Cc1cccc(C(C)C)c1NC(=O)C(Sc1ccccc1)c1ccccc1 (stereo not given) as listed: 2% | 15%
CCOc1ccc(-c2n[nH]c3c2C(c2cccs2)N(c2ccc(Br)cc2)C3=O)cc1 (stereo not given) as listed: ? | ?

(continued)
| SMILES | 2A firefly | StopGo RLuc |
| --- | --- | --- |
| COc1ccc(-c2cn3cccnc3n2)cc1NC(=O)Nc1cc(C)ccc1C | 116%&20%[activator] | -1%&-6% |
| Cc1ccc(CN(C)Cc2cc(=O)oc3ccc(C)cc23)cc1 | 7% | 0% |
| COc1ccccc1C1C(C(=O)N2CCCCC2)=C(C)Nc2nc3ccccc3n21 (stereo not given) | -5% | -9% |
| Cc1nc(SCc2nc(-c3cccc(Cl)c3)oc2C)[nH]c(=O)c1C | 12% | 3% |
| O=C(c1cc(-c2ccccc2Cl)nc2ccccc12)N1CCCC1 | -8% | 8% |
| Cc1nc2nc(N)c(C#N)cn2n1 | 0% | 18% |
| COc1cccc(-n2ccnc2SCC(=O)Nc2c(C)cc(C)cc2C)c1 | ? | -27% |
| Cc1cc(Br)ccc1NC(=O)c1coc(=O)c2ccccc12 | -7% | -13% |
| CC(C)c1ccc(S(=O)(=O)Nc2cc3c(cc2NCc2ccccc2)n(C)c(=O)n3C)cc1 | 554%[activator] | 728%[activator] |
| CCc1ccc(NC(=O)Cn2cnc3sc(C)c(S(=O)(=O)N4CCC(C)CC4)c3c2=O)cc1 | 4% | -6% |
| CC(C)(C)c1ccc(NC(=O)CC2(C(=O)O)CCCC2)cc1 | 0% | 29% |
| Cc1cc(Nc2ccc(Br)c(C)c2)n2nc(-c3ccco3)nc2n1 | -16% | -16% |
| CCCCn1cnc2c1c(=O)n(CC(=O)Nc1ccccc1C(C)C)c(=O)n2CCC | 5% | 1% |
| Cc1cccc(C2=Nc3ccccc3N=C(c3cc(Cl)ccc3O)C2)c1 | -4% | 228%[activator] |
| CC1(C)CC(NCCNC2CC(C)(C)NC(C)(C)C2)CC(C)(C)N1 | 16% | 17% |
| CCNc1nc(SCC(=O)NC(=O)NC(C)C)nc2ccccc12 | 23% | 8% |
| Nc1nc(COC(=O)c2c(Cl)cccc2Cl)nc2ccccc12 | 100%[activator] | 103%[activator] |
| COC(=O)c1ccc(COc2ccc(/C=C(\C#N)C(=O)Nc3ccccc3C(F)(F)F)cc2)cc1 | 75%[activator] | 0%[1.06 µM] |
| CCCn1nc(C(=O)OCc2nc(N)nc(Nc3ccccc3C)n2)c2ccccc2c1=O | 24% | 12% |
| CC(C)(C)OC(=O)N1CCC(c2c(C(=O)NCCN3CCc4ccccc4C3)cnn2-c2ccc(F)cc2F)CC1 | -21% | -4% |
| CC(OC(=O)c1cc(C2CC2)nn1-c1ccccc1)C(=O)Nc1ccc(N(C)C)cc1 (stereo not given) | 24% | 6% |
| COc1cccc(CNC(=O)c2ccc(NC(=O)N3CCCCc4ccccc43)cc2)c1OC | -3% | -4% |
| Cc1cccc(NC(=O)CSc2nc3ccc(NC(=O)COc4ccc(Cl)cc4)cc3s2)c1 | 20% | 2% |
| Cc1ccc(CNC(=O)Cn2ccn(-c3cc(C)cc(C)c3)c(=O)c2=O)cc1 | -20% | 16% |
| N#Cc1ccc(Sc2nc3ccccc3[nH]2)nc1 | -1% | -5% |
| COc1ccc(-c2nc3cc(NC(=O)c4ccccc4OC)ccc3o2)cc1Cl | 32% | -2% |
| CCCCC(=O)N(C)Cc1ccc(OC)cc1 | 0% | 4% |
| Nc1c(C(=O)Nc2ccc(Cl)cc2F)sc2nc(-c3cccs3)ccc12 | 83%[activator] | -6% |
| O=C(c1cnn(-c2ccc(F)cc2)c1-n1cccc1)N1CCN(c2ccccc2)CC1 | -7% | -8% |
| O=C(CCc1c[nH]c2ccccc12)NCC#Cc1cccc(C(F)(F)F)c1 | 3% | -3% |
| Cc1ccc2oc(-c3cccc(NC(=O)c4sc5c([N+](=O)[O-])cccc5c4Cl)c3)nc2c1 | -1% | -12% |
| O=C(O)c1cccc(COc2cc(Cl)ccc2Cl)c1 | ? | 11% |

From PubChem BioAssay

An excerpt; rates above refer to the full screens.
